High-throughput results: PubChem, ICCB-Longwood Screening Facility, Harvard Medical School
AID504770 – E. coli YBA685 growth inhibition, screen for V. cholerae RctB inhibitors; E. coli YBA685 rctB-dependent plasmid, OD600 growth, 3 h; stronger effect = lower value; z-score (test concentration not listed); 130,000 compounds, 0.27% hits; AID 504770;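 active means z-score under -2 on both plates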;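 further: wells of about 30 µL received 100 nL stock; score is relative to mean and SD of the test wells; the first replicate is given; strong numbers were not always called active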
CapD inh – blocks the Bacillus anthracis CapD enzyme | 140,000 compounds, 0.23% hits | z-score (no concentration beside the values) | purified CapD enzyme, fluorescence intensity read-out; stronger effect = lower value; some hits fall short of the stated cut;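 active means z-score under -4 in either of two replicates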;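 further: stock transfer was 100 nL into about 40 µL; score is relative to mean and spread of the plate; one replicate is shown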
* marks the source's active call; other numbers are inactive results; . = not tested or not shown.

molecule	AID504770	CapD inh
O=C(COc1ccccc1)Nc1ccc(S(=O)(=O)N2CCCCC2c2cccnc2)cc1 (centres undefined)	.	-0.36
Cc1cccc(C)c1NC(=O)C1(NC(=O)c2ccccc2)CCC(C(C)(C)C)CC1 (centres undefined)	.	-0.12
N#Cc1ccccc1-n1cccc1	-0.75	-0.13
c1ccc(CNC2CCCc3c2[nH]c2ccc(-c4ccccc4)cc32)cc1 (centres undefined)	2.2	0.68
CCN(CC)C(=O)Cc1cc(OC)c(OC)cc1Br	-0.15	-0.22
O=C(Nc1ncnc2oc(-c3ccccc3)c(-c3ccccc3)c12)c1ccc(F)cc1	.	49
O=C(CSc1c2c(nc3ccc(Cl)cc13)CCCC2)NCc1ccccn1	-0.55	0.27
CCOC(=O)c1cn2cc(Cl)ccc2n1	1.1	.
CC(C)(C)c1ccc(C(=O)N/C(=C\c2ccc([N+](=O)[O-])cc2)C(=O)Nc2ccc(Cl)c([N+](=O)[O-])c2)cc1	.	-0.36
Cc1ccc(S(=O)(=O)Nn2c(SCC(=O)c3ccc(F)cc3)nc3ccccc3c2=O)cc1	.	-0.66
CCC(Sc1nnc2c3ccccc3n(C)c2n1)C(=O)Nc1nnc(C(F)(F)F)s1 (centres undefined)	-0.45	-0.43
CCO/C=C1/SC(=S)N(c2cc(OC)cc(C(F)(F)F)c2)C1=O	1	0.18
CN1C(=O)CC(C(=O)Nc2ccccc2F)SC1=Nc1ccc(Cl)cc1 (centres undefined)	-1.1	0.21
Nc1nc2c(-c3ccc(Br)cc3)nnn2c2ccccc12	0.1	9.5
Clc1ccc(-c2ncnn2-c2ccccc2)c(Cl)c1	-1.2	-0.69
O=C(c1ccc(N2CCCC2=O)cc1)N(Cc1ccco1)Cc1cccs1	-0.55	.
Cc1cc(Nc2ccc(C(=O)O)cc2)c2cc(Cl)ccc2n1	-1	1.5
O=C(O)C12CCCC(CBr)(CCC1)C2	-0.9	-0.37
CCCCn1c(CCNC(=O)CC)nc2ccccc21	-0.65	-0.46
CCOC(=O)c1c(-c2ccccc2)oc2c1cc(OC(=O)c1ccc(Cl)cc1)c1ccccc12	.	2.6
NS(=O)(=O)c1ccc(CCNc2ncnc3c2c(-c2ccccc2)cn3-c2ccc(F)cc2)cc1	.	-0.035
Cc1cccc(CCNC(=O)CCc2nnc3n(Cc4ccccc4)c(=O)c4ccccc4n23)c1	2.5	23
CCc1ccccc1NC(=O)CCSc1nc(-c2ccco2)cc(C(F)(F)F)n1	-0.15	0.47
COc1cc(-n2c(SC)nc3ccccc3c2=O)c(OC)cc1Cl	0.25	-0.17
CN(C)S(=O)(=O)c1ccc(SCC(=O)NC2CCCc3ccccc32)nc1 (centres undefined)	1.1	.
O=C(/C=C/c1ccc(Cl)cc1)NCc1ccccc1	0.9	-0.07
O=C(NCCc1ccccc1)c1cc(C(=O)c2ccc(Cl)cc2Cl)c[nH]1	.	-0.08
OCCCCNc1cccc2ccccc12	0.4	.
Cc1cc2c(C)nc(-c3ccccc3)nc2o1	0.65	0.53
CCOC(=O)c1sc2[nH]c(=S)n(Cc3cccc(Br)c3)c(=O)c2c1C	.	0
C=CCn1c(SCc2ccc(C(=O)NCCO)cc2)nc2ccccc2c1=O	0.15	0.53
CCn1c(/C=N/NC(=O)Cc2ccccc2)nc2ccccc21	0.25	.
O=C(NCCNc1nccc(C(F)(F)F)n1)Nc1ccccc1Cl	0.7	2.3
CN1CCN(Cc2cc3sccc3n2Cc2ccc(F)cc2)CC1	-0.55	.
COc1ccccc1C=C(C#N)C#N	.	5.3
O/N=C/c1ccc(Br)s1	.	-0.67
O=C(O)C1CCCCC1C(=O)Nc1ccc2c(c1)OCCO2 (centres undefined)	-0.55	0.2
O=C(CSc1nc2ccccc2nc1Cc1ccc(F)cc1)NC1CCCCC1	.	0.5
Cc1nnc(SCC(=O)N2CC3(C)CC2CC(C)(C)C3)[nH]c1=O (centres undefined)	0.35	.
COc1ccc(-c2cc(C(F)(F)F)nc(SCCC(=O)N(C)Cc3ccccc3)n2)cc1	-0.1	-0.67
COC(=O)c1ccc(Cl)cc1OC(=O)c1ccccc1	1.9	2.9
COc1ccc2oc(C)c(C(N)=O)c2c1	-0.95	.
O=C(NCCCN1CCOCC1)c1ccc2c(=O)n(CCCN3CCCC3=O)c(=S)[nH]c2c1	-0.9	0.8
Cc1ccc(C)c(CSc2ncnc3ccccc23)c1	-0.05	0.075
COc1cccc(CNc2cccc(F)c2)c1	-0.9	-0.1

7 consecutive compounds out of the list so far, quoted:
molecule	AID504770	CapD inh
CCn1c(/C=N/NC(=O)Cc2ccccc2)nc2ccccc21	0.25	.
O=C(NCCNc1nccc(C(F)(F)F)n1)Nc1ccccc1Cl	0.7	2.3
CN1CCN(Cc2cc3sccc3n2Cc2ccc(F)cc2)CC1	-0.55	.
COc1ccccc1C=C(C#N)C#N	.	5.3
O/N=C/c1ccc(Br)s1	.	-0.67
O=C(O)C1CCCCC1C(=O)Nc1ccc2c(c1)OCCO2 (centres undefined)	-0.55	0.2
O=C(CSc1nc2ccccc2nc1Cc1ccc(F)cc1)NC1CCCCC1	.	0.5

Following part:
molecule	AID504770	CapD inh
COc1cc(OC)cc(-c2nc3ccccc3c(=O)n2NC(=O)/C=C/c2ccccc2Cl)c1	.	-0.17
O=C(CSc1nc2[nH]ncc2c(=O)n1-c1ccc(Cl)cc1)Nc1ccc(Br)cc1	.	-0.13
COc1ccc(C(=O)N/C(=C/c2cccs2)C(=O)NCCN2CCOCC2)cc1	.	-0.12
CCOC(=O)C1=C(CSc2nc(C)c(C)c(C)c2C#N)OC(N)=C(C#N)C1c1ccc(OC)cc1 (centres undefined)	.	0.27
CCC(=O)NC(c1ccccc1)c1nc2ccccc2[nH]1 (centres undefined)	-0.7	-0.21
O=C(O)C1Cn2c(nc3c(c2=O)C2(CCCC2)Cc2ccccc2-3)S1 (centres undefined)	0.1	14
Cc1[nH]c(=S)[nH]c1C12CC3CC(CC(C3)C1)C2	0.55	-0.7
O=C(c1ccc(-c2ccccc2F)cc1)N1CCCCCC1	.	-0.21
O=C(CS(=O)(=O)c1ccc(C(F)(F)F)cn1)N/N=C/c1cccc2c1OCO2	.	0.27
Cc1nc(N2CCCCC2)sc1C1Sc2ccccc2NC1=O (centres undefined)	-0.25	.
CNC(=O)CCc1nc(-c2ccccc2)no1	-0.95	-0.48
CC(=O)NCCOc1c(C)cccc1C	-0.25	-0.065
O=C(Nc1nn2cnnc2s1)c1ccc(S(=O)(=O)N2CCc3ccccc3C2)cc1	0	.
CCN(CC)CCCC(C)NS(=O)(=O)c1ccc(C)c(Cl)c1 (centres undefined)	.	-1.3
CC(C)(C)c1nc2ccc(N)cc2[nH]1	-0.3	.

3 structures already listed, ordered by length of the SMILES, highest first:
molecule	AID504770	CapD inh
O=C(CS(=O)(=O)c1ccc(C(F)(F)F)cn1)N/N=C/c1cccc2c1OCO2	.	0.27
CCN(CC)CCCC(C)NS(=O)(=O)c1ccc(C)c(Cl)c1 (centres undefined)	.	-1.3
CC(=O)NCCOc1c(C)cccc1C	-0.25	-0.065

(next part)
molecule	AID504770	CapD inh
Cc1cccc(CC(=O)NCc2ccc3[nH]c(C)cc3c2)c1	-0.6	7.8
C=CCn1c(O)c(N=NC(=O)OC)c2cc(Br)ccc21	-0.1	-0.95
Nc1c(C(=O)NCc2ccccc2)c2nc3ccccc3nc2n1/N=C/c1ccco1	1	.
O=C(N1CCN(c2nc(-c3ccccc3)c3cc([N+](=O)[O-])ccc3n2)CC1)C(F)(F)F	.	-0.28
Clc1ccc(CSC2=NCCCN2C2CCCCC2)cc1	.	0.06
COc1cc(/C=C2/C(=O)N(c3ccc(C(C)=O)cc3)N=C2C)ccc1OCc1ccccc1	.	0.56
CC1(C)Cc2c(ccc3ccccc23)C(=NCCC(=O)O)N1	0.4	0.67
COc1ccc(-c2c(C#N)c(N)nc3sc(C(N)=O)c(N)c23)cc1OC	.	-1.3
O=C(Cn1cc2c(n1)CCCCC2)NCc1ccccc1	-0.3	-0.71
CC(=O)N1c2ccc(S(=O)(=O)N3CCCC3C(=O)N3CCN(c4ccccc4)CC3)cc2CC1C (centres undefined)	-0.1	-0.28
CC1(C)c2cc(Cl)ccc2-n2c1cc(O)c(-c1ccccc1)c2=O	-0.6	18
Cc1nc2ccccc2n(CC(=O)Nc2cc(Cl)cc(Cl)c2)c1=O	-0.15	9.2
O=C(NCc1ccco1)/C(=C\c1ccccc1)NC(=O)c1ccc(Cl)cc1Cl	.	5.5
Oc1cc2[nH]c3ccccc3c2cc1CN1CCOCC1	-0.35	.
Cc1cc(OC(C)C)c2c3c(c(=O)oc2c1)CCCC3	-0.75	24
COc1ccc(N2CCN(C(C)C(=O)N3CCCC3)CC2)cc1 (centres undefined)	0.5	.
COc1ccc2[nH]cc(S(=O)(=O)c3ccccc3)c(=O)c2c1	0.65	5.8
CCc1ccc(N2C(=O)/C(=C/c3ccc(OCC(=O)O)c(Br)c3)C(=O)NC2=S)cc1	.	-1.6
CCNc1nc(Oc2ccc(=O)[nH]n2)nc(N2CCOCC2)n1	-0.15	1.4
CN(c1ncnc2c1nc1n2CCCCC1)C1CCCCC1	-0.45	0.88
Cc1ccc(C(=O)OCC(=O)Nc2ccccc2C)cc1C	0.7	0.16
CC(C)N=C1NC(=NC(C)C)c2ccccc21	0.65	.
O=C(O)CNC(=O)c1ccccc1Cl	.	0.24
CCOC(=O)c1cc2cc(Br)ccc2oc1=O	0.15	0.41
Cc1cc(C)nc(Nc2ccc(NS(=O)(=O)/C=C/c3ccccc3)cc2)n1	-0.85	-0.075
C=C(C)Cn1c(CCCNC(=O)c2ccccc2OC)nc2ccccc21	-3.5	44
CCOc1cc2[nH]c(=S)n(CCCN3CCC(C)CC3)c(=O)c2cc1OCC	-0.9	-0.21
COc1ccc(Oc2coc3cc(OC(=O)c4ccc(OC)c(OC)c4)ccc3c2=O)cc1	.	0.015
Cc1ccc(NC(=O)C(=O)NCCN2CCN(Cc3ccccc3F)CC2)cc1Cl	.	-0.17
CC1CCN(c2nc(-c3ccccc3)ns2)CC1	-0.8	0.89
O=C1Nc2ccc(F)cc2C1(O)Cc1ccncc1 (centres undefined)	-1	-0.59
COc1ccc(C(=O)COc2coc(CN3CCc4ccccc4C3)cc2=O)cc1	-0.95	.
CC(Sc1nnc(-c2cccs2)n1C1CC1)c1nnc(-c2cccs2)o1 (centres undefined)	0.35	.
O=C(O)C1CCCN1C(=O)c1ccco1 (centres undefined)	-0.3	.
O=C(CN1C2=NCCN2c2ccccc21)c1ccc(Cl)cc1Cl	-0.85	0.05
COc1cccc(CNC(=O)CCCN2C(=O)c3cccnc3Oc3ccc(Cl)cc32)c1	0.4	-0.14
Cc1ccccc1Nc1nc(N)nc(COC(=O)Cc2cccs2)n1	-0.55	.
Cc1ccsc1C(O)c1nnc(-c2ccccc2)o1 (centres undefined)	-1	.
COc1ccc(N2C(=O)/C(=C/c3ccc(Oc4ccc([N+](=O)[O-])cn4)cc3)C(=O)NC2=S)cc1	.	-0.55
CSc1cccc(NC(=O)/C=C/c2ccc(C(C)C)cc2)c1	0.2	-2
Cc1cc(C)nc(OCc2cc3cccc4c3n(c2=O)CCC4)n1	.	6.4
N#CC1(NC(=O)CSc2nc3ccccc3o2)CCCCC1	-0.8	.
COc1ccc(CNC(=O)C(C)Sc2nc(C)c(C)n2CC(C)C)cc1 (centres undefined)	-0.35	.
CS(=O)c1cnc(-c2ccc(O)cc2)nc1-c1ccc(C(F)(F)F)cc1 (centres undefined)	.	-0.8
O=C(O)CC1(CC(=O)Nc2ccc3c(c2)OCCCO3)CCCCC1	-0.2	-0.92
COc1cc(/C=c2\sc3nc4ccccc4n3c2=O)c(Br)cc1OCC(=O)O	.	0.02
O=C(CN1C(=O)/C(=C\c2ccc(F)cc2)Oc2ccccc21)NCC1CCCO1 (centres undefined)	2	2.7
O=C(O)CCC(=O)N1CCOCC1	3	-0.88
N#CCc1ccc(OC(=O)Nc2ccccc2)cc1	.	0.57
Nc1ccccc1NS(=O)(=O)c1cccs1	2.3	.
CCOC(=O)c1c(NC(=O)OC)sc2c1CCCC2	-0.15	13
S=C1CC(c2ccccc2)Sc2ccccc2N1 (centres undefined)	0.3	-1
COc1cc2c(cc1OC)CN(C(=O)C1CCCN(C(=O)c3ccc(Cl)cc3)C1)CC2 (centres undefined)	1.2	.
Cc1cccc(NCN2C(=O)CCC2=O)n1	.	0.21
CCn1c(=O)[nH]c2ccc(S(=O)(=O)N(C)C)cc21	0.85	.
Cc1occc1C(=O)NN=C1c2ccccc2-c2ccccc21	0.6	.
CCOc1ccc(CCNC(=O)c2ccc3c(c2)NC(=O)C2CCCN32)cc1OCC (centres undefined)	0.1	0.67
CN(CC1COc2ccccc2O1)C(=O)NC12CC3CC(CC(C3)C1)C2 (centres undefined)	0.6	.
Brc1ccc(-c2nnc(SCCC3OCCCO3)o2)cc1	-0.7	0.055
NS(=O)(=O)c1ccc(C(=O)N/N=C/c2ccc(Cl)c(F)c2)cc1	.	-0.71

The list continues:
molecule	AID504770	CapD inh
COc1ccc(S(=O)(=O)N2CCCCCC2)cc1C(=O)OCC(=O)N1CC(C)OC(C)C1 (centres undefined)	1.4	.
COC(=O)c1ccc(S(=O)(=O)N(C)C)n1C	0	-0.71
CSC(=NC(C)(C)C)Nc1ccccc1Cl	0	-0.17
O=C1CSC(c2cn(-c3ccccc3)nc2-c2cc3ccccc3oc2=O)N1Cc1ccccc1 (centres undefined)	.	3.8
